Assay outcomes as filed in PubChem.
2A Renilla – lowers the Renilla signal of an FMDV 2A StopGo reporter; HEK cells with a luciferase reporter of 2A StopGo recoding; Potency, µM (titrated, usually from 57.5 µM), inactives show at the top dose signal change, negative = less light; actives 0.32% (n = 120,000); AID 1745857; active means well fitted falling curve with a large enough effect; inconclusive means small, poorly fitted or top-dose-only effect; inactive means no such curve, though single readings can be large or run the other way; also: nearly all actives have a fitted effect of over 55% in size; overnight with compound
2A firefly – lowers the firefly signal of an FMDV 2A StopGo reporter; HEK cells with a luciferase reporter of 2A StopGo recoding; Potency, µM (series often up to 57.5 µM), for the others: top-dose signal change, negative = less light; actives 0.23% (n = 120,000); active = well fitted falling curve with a large enough effect; inconclusive = small, poorly fitted or top-dose-only effect; inactive = no such curve, though single readings can be large or run the other way; also: nearly all actives have a fitted effect of over 60% in size; overnight with compound
* marks the source's active call; other numbers are inactive results; ? = inconclusive; [ ] = dose if it differs, or a comment. % is scaled to controls: 0 for no effect and ±100 for the full control effect; potency is read from the fitted curve at half-maximal effect.

Sample of the layout (4 entries):
compound | 2A Renilla | 2A firefly
COc1ccccc1CNC(=O)CCn1c(=O)c2ccccc2n(CC(=O)Nc2cccc(Cl)c2)c1=O | -2.9% | -11.9%
CCCCNc1nc(Oc2ccc(=O)[nH]n2)nc(N(C)C)n1 | 5.6% | 6.8%
N#Cc1nc(-c2ccc(COc3ccccc3)o2)oc1NCc1cccnc1 | -13.2% | 8.4%
Cc1ccc(-c2nc(C)c(CCNC(=O)C(=O)Nc3ccc4c(c3)OCO4)s2)cc1 | 5.2% | 68.2%[activator]

The list itself, from the start:
compound | 2A Renilla | 2A firefly
COc1ccccc1CNC(=O)CCn1c(=O)c2ccccc2n(CC(=O)Nc2cccc(Cl)c2)c1=O | -2.9% | -11.9%
CCCCNc1nc(Oc2ccc(=O)[nH]n2)nc(N(C)C)n1 | 5.6% | 6.8%
N#Cc1nc(-c2ccc(COc3ccccc3)o2)oc1NCc1cccnc1 | -13.2% | 8.4%
Cc1ccc(-c2nc(C)c(CCNC(=O)C(=O)Nc3ccc4c(c3)OCO4)s2)cc1 | 5.2% | 68.2%[activator]
CCN(CC)S(=O)(=O)c1ccc2oc(C(=O)Nc3ccc(Br)cc3F)c(C)c2c1 | -8.4% | -15.0%
Cn1c(NCc2c[nH]c3ccccc23)nc2ccccc21 | 19.2% | 190.8%[activator]
CC(N)(C(=O)O)c1ccccc1 (configuration not stated) | 20.3% | 0.0%
O=C(Cn1c(=O)c2ccccc2n2nncc12)Nc1cccc(F)c1 | -13.2% | -21.3%
Cc1ccc(S(=O)(=O)Cc2noc(CCC(=O)NCc3ccc(Cl)cc3)n2)cc1 | 18.1% | 11.1%
CC(C)CNC(=O)c1ccccc1NC(=O)C1CCN(S(=O)(=O)Cc2ccccc2)CC1 | 29.9% | 0.3%
CN(Cc1ccccc1)C(=O)Cn1nc(-c2cccs2)c2ccccc2c1=O | 10.2% | 5.4%
Cc1ccc(NC(=O)CCc2nnc3n(CC(C)C)c(=O)c4ccccc4n23)cc1C | -4.7% | -5.3%
Cc1cccc(CNC(=O)Cc2cccc3cccnc23)c1 | -10.7% | 65.2%[activator]
COCCCn1c(=N)c(C(=O)NC2CCCC2)cc2c(=O)n3cccc(C)c3nc21 | -5.0% | 133.6%[activator]
CC(Sc1ccc2c(c1)OCCCO2)C(=O)O (configuration not stated) | -2.3% | 4.6%
CC(=O)c1ccc(OCCCC(=O)OCC(=O)c2ccc3c(c2)OCCO3)cc1 | 3.5% | 2.0%
O=C(CN1CCCNCC1)N1CCCC1 | -10.2%[1.06 µM] | 21.1%
Cc1ccc(C(=O)N2CCN(c3nc4c(c(=O)n(C)c(=O)n4C)n3Cc3ccccc3)CC2)cc1 | -1.2% | -1.4%
COc1cccc(-c2cn3c(n2)sc2cc(C(=O)NC4CCCCC4)ccc23)c1 | -10.8% | 20.1%
O=C(NCCc1c[nH]c2ccccc12)C(=O)Nc1ccccc1F | -1.4% | 0.0%
Cc1ccc(C)c(CN2CCN(c3nc4c(c(=O)[nH]c(=O)n4C)n3CCC(C)C)CC2)c1 | -2.3% | -0.5%
CCN(C(=O)COc1ncnc2c(Cl)cc(Cl)cc12)c1ccccc1 | 3.4% | 1.0%
CCN(CC)S(=O)(=O)c1cccc(NC(=O)CN2c3cccc4cccc(c34)S2(=O)=O)c1 | 76.1%[activator] | 3.7%
COCc1cc(C)nc2sc3c(=O)n(-c4ccccc4C(F)(F)F)nnc3c12 | -12.7% | -10.8%
CC(=O)N1CC(=O)Nc2ccc(F)cc2C1c1ccccc1 (configuration not stated) | 8.8% | 24.8%
Cc1cc(C)c([N+](=O)[O-])cc1[N+](=O)[O-] | -12.4% | 9.0%
CC1CCC(C#N)(N(C)C(=O)CN(C)CC(=O)Nc2cccc(F)c2)CC1 (configuration not stated) | -30.6% | ?
COc1ccccc1N1CCN(c2ccc(-c3nc(-c4ccccc4C)no3)cc2[N+](=O)[O-])CC1 | -8.0% | 57.1%[activator]
Cc1ccc(NC(=O)c2cnc(SCC(=O)N3CCOCC3)n(C)c2=O)cc1C | -4.5% | ?
O=C(NCc1cccc(Br)c1)C1CCN(CC(F)(F)F)CC1 | 4.9% | 0.5%

7 entries already listed, arranged by SMILES length, low to high:
compound | 2A Renilla | 2A firefly
O=C(CN1CCCNCC1)N1CCCC1 | -10.2%[1.06 µM] | 21.1%
CCCCNc1nc(Oc2ccc(=O)[nH]n2)nc(N(C)C)n1 | 5.6% | 6.8%
O=C(NCCc1c[nH]c2ccccc12)C(=O)Nc1ccccc1F | -1.4% | 0.0%
COCc1cc(C)nc2sc3c(=O)n(-c4ccccc4C(F)(F)F)nnc3c12 | -12.7% | -10.8%
COCCCn1c(=N)c(C(=O)NC2CCCC2)cc2c(=O)n3cccc(C)c3nc21 | -5.0% | 133.6%[activator]
COc1ccccc1CNC(=O)CCn1c(=O)c2ccccc2n(CC(=O)Nc2cccc(Cl)c2)c1=O | -2.9% | -11.9%
Cc1ccc(C(=O)N2CCN(c3nc4c(c(=O)n(C)c(=O)n4C)n3Cc3ccccc3)CC2)cc1 | -1.2% | -1.4%

Fetched by compound from the entries so far (2):
compound | 2A Renilla | 2A firefly
CN(Cc1ccccc1)C(=O)Cn1nc(-c2cccs2)c2ccccc2c1=O | 10.2% | 5.4%
CCN(C(=O)COc1ncnc2c(Cl)cc(Cl)cc12)c1ccccc1 | 3.4% | 1.0%

Continuation.
compound | 2A Renilla | 2A firefly
Cc1ccc(-c2noc(-c3ccco3)n2)s1 | 9.4% | 0.0%
Cc1noc(C)c1C1CCCN1C(=O)c1cc(-c2ccco2)on1 (configuration not stated) | 5.6% | 2.3%
Cc1ccc(C(NC(=O)c2cc(F)ccc2F)C2CC2)cc1 (configuration not stated) | 0.0% | 8.2%
O=C(O)C1(c2ccc(Cl)cc2Cl)CCOCC1 | 14.2% | 19.1%
CCc1c(C)sc2nc(NC(CC)CO)n3nc(-c4ccco4)nc3c12 (configuration not stated) | 8.5% | -4.5%
O=C(NCc1nnnn1-c1ccccc1)Nc1ccc2c(c1)OCO2 | 49.1%[activator] | 98.6%[activator]
COc1cc(OC)c(NC(=O)Cn2ncn3c(cc4cc(C)ccc43)c2=O)cc1Cl | -11.6% | -3.7%
COc1ccc(/C=C/[N+](=O)[O-])cc1OC | ? | ?
Cc1ccc(C)c(NC(=O)N2CCN(C(=O)c3nsc4ccccc34)CC2)c1 | -10.8% | -14.7%
Cc1c(C)c2ccc(OC(C)C(=O)NCCN3CCOCC3)c(C)c2oc1=O (configuration not stated) | 7.7% | 4.1%
O=C(CSc1nccn1Cc1ccccc1)NCc1ccco1 | 7.2% | 0.0%
CCOC(=O)c1cnc2ccc(OCC)cc2c1N1CCN(c2ccccc2F)CC1 | -16.1% | -21.8%
Cc1ccc(C(CCNCc2ccc(F)cc2)c2ccco2)cc1 (configuration not stated) | 0.3% | 8.4%
COc1cccc(C2CC(=O)N(c3ccc(F)cc3)C3=C2C(=O)OC3)c1OC (configuration not stated) | -10.7% | -22.8%
COc1cccc(/C=C(/C(=O)OCc2nnc(-c3ccc(Br)cc3)o2)c2ccccc2)c1 | -0.3% | 23.7%
Cc1ccc(-n2nc(C)c3c(C)cc(=O)n(CC(=O)NC(C)C)c32)cc1 | 3.0% | -14.9%
CCCN1CCN(c2nc3c(c(=O)[nH]c(=O)n3C)n2Cc2ccccc2C)CC1 | -20.6% | -8.2%
Cc1cc(C)n2nc(SC(C)C(=O)Nc3ccc(Cl)cc3)nc2n1 (configuration not stated) | 26.1% | 16.0%
COc1ccccc1Nc1cc(C(=O)NCc2cccs2)c2ccccc2n1 | 0.0% | 55.9%[activator]
COC(=O)COc1ccc(C2C(C(=O)OC)=C(C)NC3=C2C(=O)c2ccccc23)cc1OC (configuration not stated) | -6.7% | -20.1%
CCOc1ccc(N(Cc2cc3cc(C)ccc3[nH]c2=O)C(=O)c2cccc(Cl)c2)cc1 | -3.8% | -8.9%
COc1ccc(CNS(=O)(=O)c2ccc(-c3cc(C(F)(F)F)on3)s2)cc1OC | ? | ?
COC(=O)c1cccc(C(=O)OC)c1Cl | 12.4% | 27.1%
O=[N+]([O-])c1nccn1CO[C@@H](CO)[C@H](O)CO | -15.5% | -20.8%
Nc1nccnc1C(=O)NCCOc1ccccc1 | 33.0% | 0.0%
Cc1cccc(OCCSc2nc3ccccc3n2CC(=O)N2CCCCC2)c1C | 19.1% | -3.1%
CC(Oc1ccc(Cl)cc1Cl)C(=O)N1CCN(C(=O)c2ccco2)CC1 (configuration not stated) | -5.6% | -4.8%
CCN(CC)C(C)CNC(=O)NC1CC1 (configuration not stated) | 81.4%[activator] | 54.7%[activator]
COC(=O)c1c(-c2cccs2)csc1NC(=O)c1ccc(Cl)cc1 | 8.7% | 49.1%[activator]
CNC(=O)c1ccc(-c2nc(CN3CCN(C(=O)Nc4ccc(C)c(Cl)c4)CC3)c(C)o2)cc1 | 7.4% | 21.3%

Carrying on.
Below each compound: 2A Renilla | 2A firefly
COc1cccc(NC(=O)Cn2cc(C#N)c3ccccc32)c1
 : 12.8% | -3.4%
Cc1ccc(NC(=O)Cn2c(=O)n(-c3ccccc3)c(=O)c3c4c(sc32)CCCC4)cc1
 : -4.5% | -14.8%
CCOC(=O)CCN(CC1CC1)C(=O)c1ccc(C)s1
 : 1.9% | 9.0%
CCCc1cc(=O)n2c(C(=O)NCc3ccccc3)c(C(=O)Nc3ccc(Cl)cc3C)sc2n1
 : -5.3% | -6.1%
COc1cccc(S(=O)(=O)CCOC2CCCCC2C)c1 (configuration not stated)
 : 147.5%[activator] | 31.1%[activator]
N#Cc1ccc(C(=O)N2CCN(c3oc(C4CC4)nc3C#N)CC2)cc1
 : -2.7% | 1.7%
CCOc1ccc(-n2c(SCC(=O)Nc3cc(C)ccc3C)nc3c([nH]c4ccccc43)c2=O)cc1
 : -15.5% | -11.9%
COc1cccc(-c2c(NC(=O)c3cccc([N+](=O)[O-])c3)oc3ccccc3c2=O)c1
 : -1.2% | 11.5%
CCC(=O)NNC(=S)Nc1ccccc1
 : 9.2% | 0.0%
COc1cccc(-n2c(=O)c3c4c(sc3n(Cc3ccc(F)cc3Cl)c2=O)CCCC4)c1
 : -10.4% | 0.3%
O=C(O)c1ccc(COc2cccc(Cl)c2)cc1
 : 1.3% | 53.8%[activator]
CC(CNC(=O)Cn1cc(C(N)=O)c2ccccc21)c1ccccc1 (configuration not stated)
 : 7.9% | 27.0%
COc1ccc(CNCc2ccc(C(=O)O)s2)cc1
 : -8.9% | 2.2%
Cn1c(=O)c2c(-c3ccccc3Cl)n(-c3cc(Cl)ccc3O)cc2n(C)c1=O
 : 141.0%[activator] | -14.4%
Cc1cc(NC(=O)c2cnc3ccccc3n2)ccc1N1CCN(C)CC1
 : -8.8% | 0.0%
COc1ccc(-c2nnc(SCC(=O)Nc3ccccc3C)o2)cc1OC
 : -0.3% | 12.8%
CN(C(=O)CCS(=O)(=O)c1cc2c(cc1Cl)NC(=O)CO2)C1CCCCC1
 : -2.8% | 0.2%
Cc1cc(OC(C)C(=O)Nc2sc3c(c2C(N)=O)CCCC3)ccc1Cl (configuration not stated)
 : 0.2% | 3.5%
CCc1cccc(CC)c1NC(=O)CN1C(=O)C(=O)c2ccccc21
 : 13.6% | 11.0%
Cc1nc(C)c(CC(=O)Nc2nnc(C(C)C)s2)c(=O)[nH]1
 : -2.3% | 3.2%
CCOc1ccc(Nc2oc(/C=C/c3ccccc3)nc2C#N)cc1
 : 14.2% | 0.0%
CCCOc1ccc(C2CC(=O)Nc3c2c(=O)n(C)c(=O)n3C)cc1OC (configuration not stated)
 : 13.9% | 14.4%
COc1cccc(OC)c1C(=O)Nc1cc(C)c(O)c(-c2nc3cc(C)ccc3o2)c1
 : 2.4% | 8.8%
O=C(CCNC(=O)N1CCn2c1nc1ccccc12)NC1CC1
 : -20.7% | 42.8%[activator]
COc1cccc(C(=O)Oc2cc(OC(=O)c3cccc(OC)c3)cc(OC(=O)c3cccc(OC)c3)c2)c1
 : -1.7% | 2.9%
O=c1c2c3c(sc2n2cnnc2n1-c1ccccc1)CCCCC3
 : -1.7% | 3.1%
COC(=O)c1cc2oc3ccccc3c2n1Cc1cc(C)ccc1C
 : -7.3% | 7.3%
COc1ccc(C(=O)N(Cc2cc(OC)c(OC)c(OC)c2)c2ccccn2)cc1
 : ? | ?
COC(=O)c1cc(OC)c(OC)cc1NC(=O)c1ccc2c(c1)CCN2S(C)(=O)=O
 : -7.6% | -11.9%
COc1ccc(NC(=O)CN2C(=O)CCc3cc(S(=O)(=O)N4CCOCC4)ccc32)c(OC)c1
 : -5.4% | -24.2%
Cc1ccc(-c2cc(-c3ccc(C)c(C)c3)[nH]n2)cc1C
 : 4.6% | 241.2%[activator]

For convenience, part of the list above.
Below each compound: 2A Renilla | 2A firefly
CCCOc1ccc(C2CC(=O)Nc3c2c(=O)n(C)c(=O)n3C)cc1OC (configuration not stated)
 : 13.9% | 14.4%
COc1cccc(OC)c1C(=O)Nc1cc(C)c(O)c(-c2nc3cc(C)ccc3o2)c1
 : 2.4% | 8.8%
O=C(CCNC(=O)N1CCn2c1nc1ccccc12)NC1CC1
 : -20.7% | 42.8%[activator]

An excerpt. The share of hits here may be higher or lower than overall.
